# Source: PubChem (several laboratories)
# Arbovirus inh = blocks arbovirus infection; 200,000 tested, 0.37% active; arbovirus infection cell-based antiviral screen; inhibition, % at 10 µM; AID 1251;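 active = inhibition from about 30%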;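 also: bluetongue infection of BSR cells; cell survival read as ATP light after 72 h; 0% = infected wells without compound and 100% = uninfected wells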
# YopH PTP inh = YopH (Yersinia) phosphatase inhibition; fluorescence Ex485/Em525; inhibition, %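 (about 10 µM by stock and volumes)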; 140,000 tested, 0.16% active;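 active = inhibition of 50% or more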;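 also: controls were vehicle for no effect and minimum signal wells for full effect; inactives centre near -20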
# Mtb growth = M. tuberculosis H37Rv growth inhibitors, H37Rv strain (AID 1626); 220,000 tested, 0.95% active; M. tuberculosis H37Rv growth inhibition; higher % means a stronger effect; inhibition, % at 10 µM, or IC50 in µM where a hit was titrated;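 active = confirmed in a dose series; inconclusive = inhibition above 80% but not taken into the dose series; inactive = below 80% or under 30% at every dose of the series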;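 also: bacteria incubated seven days before Alamar blue readout; 0% = bacteria only wells and 100% = bacteria with antibiotic wells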
# Mtb betalactam = beta-lactam sensitization of Mtb H37Rv. M. tuberculosis H37Rv growth with meropenem, percent inhibition; hits of this screen are not shown here. inhibition, % at 25 µM. 330,000 tested, 0.27% active. AID 434955;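 active = about 74% or more and at least 40 points above the plate without the antibiotic, then above 30% in a dose series; inconclusive = first-round hits that could not be retested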;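 also: growth measured after seven days incubation then overnight dye step; 0% = bacteria only wells and 100% = bacteria with antibiotic; twin plates without the antibiotic show which effects depend on it; some results filed as inactive read as strong as hits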
# RecA splice inh = blocks M. tuberculosis RecA intein splicing | cell-free RecA intein splicing, fluorescence | P9WHJ3 | 290,000 tested, 0.75% active | inhibition, %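 (about 9 µM by stock and volumes)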; in the data active = inhibition above about 30%; inconclusive = no clear call, values can overlap the other calls;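 also: 0% = vehicle wells and 100% = reference inhibitor control wells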
# Target sequence (P9WHJ3 whole entry, looked up, canonical isoform): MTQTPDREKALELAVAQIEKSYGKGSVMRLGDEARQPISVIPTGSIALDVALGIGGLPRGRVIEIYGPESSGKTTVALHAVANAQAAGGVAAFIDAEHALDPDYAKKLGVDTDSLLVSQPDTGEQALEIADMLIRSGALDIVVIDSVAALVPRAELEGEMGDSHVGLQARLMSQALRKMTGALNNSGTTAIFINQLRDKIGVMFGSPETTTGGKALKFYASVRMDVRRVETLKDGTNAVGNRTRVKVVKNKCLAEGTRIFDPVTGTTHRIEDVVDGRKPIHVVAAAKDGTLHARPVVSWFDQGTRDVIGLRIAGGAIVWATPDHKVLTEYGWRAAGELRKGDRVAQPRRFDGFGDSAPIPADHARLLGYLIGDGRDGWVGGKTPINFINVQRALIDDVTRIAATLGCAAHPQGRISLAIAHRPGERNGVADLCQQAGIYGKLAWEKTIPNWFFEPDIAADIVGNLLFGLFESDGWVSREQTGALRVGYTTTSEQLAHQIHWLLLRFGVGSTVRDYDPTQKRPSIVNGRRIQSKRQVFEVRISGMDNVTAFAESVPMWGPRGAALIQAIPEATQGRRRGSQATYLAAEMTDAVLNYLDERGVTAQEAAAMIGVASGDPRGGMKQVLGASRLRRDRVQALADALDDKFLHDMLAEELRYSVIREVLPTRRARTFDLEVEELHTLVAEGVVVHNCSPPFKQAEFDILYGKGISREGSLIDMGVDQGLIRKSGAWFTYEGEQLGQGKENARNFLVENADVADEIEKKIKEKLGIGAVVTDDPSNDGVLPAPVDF
# Active calls of the source: *; ? = inconclusive; . = not tested or not shown. This is a subset; count on the stated rates, not on these rows.
molecule	YopH PTP inh	Mtb betalactam	Arbovirus inh	RecA splice inh	Mtb growth
Cc1cccc(C)c1NC(=O)c1cccc2c1-c1ccccc1C2=O	-12	-3	-3	17	5%
O=C(NCc1ccccn1)c1nc(Cn2cc([N+](=O)[O-])cn2)no1	.	0	.	1.7	.
O=C(Cc1ccc(S(=O)(=O)N2CCCCC2)s1)Nc1ccc(F)cc1F	-30	0	8	-3.0	4%
Cc1cccc(OCc2nnc(SCC(=O)Nc3ncc(C)s3)o2)c1	.	35	1	0.6	8%
COC(=O)c1ccc(Nc2nc(C)cc(=O)[nH]2)cc1	8	-6	5	0.4	-2%
Cc1ccc(C)c(NC(=O)C2CCCN(S(=O)(=O)c3c(C)nn(C)c3C)C2)c1 (configuration not stated)	.	-5	.	-0.5	.
CCCCn1c(N)c(N(CC(C)C)C(=O)C2CCN(C(=O)c3ccc(F)cc3)CC2)c(=O)[nH]c1=O	.	-2	.	1.6	.
Cc1ccc(S(=O)(=O)N2CCN(CC(=O)N/N=C/C=C/c3ccccc3)CC2)cc1	-22	-7	-11	-1.7	1%
Cc1ccc(C(=O)C2=C(O)C(=O)N(Cc3ccccc3)C2c2cccnc2)o1 (configuration not stated)	-42	-14	1	2.1	-9%
CCCCCC(=O)NNC(=S)NC(=O)c1cccc([N+](=O)[O-])c1	-31	93	4	1.0	?
Cc1c(C(=O)N(C)CCC#N)oc2ccc(S(=O)(=O)N3CCOCC3)cc12	.	4	.	1.3	.
O=C(Nc1nc(-c2ccc(Cl)s2)cs1)c1ccncc1	-52	8	4	.	-6%
COc1ccc(CCNS(=O)(=O)c2ccc3c(c2)CCN3C(=O)C2CC2)cc1OC	-35	-6	2	2.9	6%
Cc1ccc(NC(=O)COC(=O)Cn2cnc3ccccc32)cc1S(=O)(=O)N(C)C	-22	-3	-2	-2.1	-11%
CC(C)(C)n1nnnc1C(c1cccnc1)N1CCN(c2ccccc2)CC1 (configuration not stated)	10	-9	-4	-2.8	-6%
O=C(CCN1C(=O)C2CCCCC2C1=O)N1CCN(S(=O)(=O)c2ccccc2)CC1 (configuration not stated)	.	1	.	1.0	.
CCc1ccc(NC2CC(=O)N(CCc3ccc(OC)c(OC)c3)C2=O)cc1 (configuration not stated)	.	-5	9	2.1	6%
O=C(C1COc2ccccc2O1)N1CCN(Cc2ccccc2)CC1 (configuration not stated)	.	6	.	2.4	.
CCC(=O)c1coc2ccc(O)cc12	10	97	.	7.5	11µM*
Cc1ccccc1NC(=O)CSc1nnc(-c2ccoc2C)n1CCc1ccccc1	-45	10	2	2.3	0%
COc1ccc(Cc2nnc(SCC(=O)Nc3ccc(N4CCOCC4)cc3)n2C)cc1	.	5	.	-3.9	.
COc1ccc(OCC(=O)NC2CCCCCCC2)cc1	.	0	.	1.8	.
Cc1nc(NC(=O)CSc2nc3cccnc3n2Cc2ccccc2)sc1C	-36	8	4	-0.4	15%
Cc1nn(-c2ccccc2)c(C)c1NC(=O)CCl	-2	70	24	9.9	0%
Cc1ccccc1N1CCN(S(=O)(=O)Cc2ccccc2)CC1	.	2	.	2.1	.

# Continued.
molecule	YopH PTP inh	Mtb betalactam	Arbovirus inh	RecA splice inh	Mtb growth
Cc1ccc(/C(N)=N/OC(=O)Cc2ccccc2)cc1	-6	3	-7	1.3	12%
COC(=O)c1c(NC(=O)COC(=O)c2ccc(NC(=O)CC#N)cc2)sc2c1CCCCC2	.	5	-5	1.5	-3%
CCOc1ccc(CCNC(=O)C2CC(=O)N(Cc3ccc(OC)cc3)C2)cc1OCC (configuration not stated)	.	0	.	-1.8	.
CC(C)CC(NC(N)=O)C(=O)OCC(=O)Nc1ccc(OC(F)F)cc1 (configuration not stated)	.	-12	2	3.2	1%
Cc1ccc(S(=O)(=O)/N=C/c2ccc(N(C)C)cc2)cc1	-16	3	-1	-6.2	0%
COc1ccc(-c2cc(=O)oc3cc(OC(C)C(=O)NCc4ccccn4)ccc23)cc1 (configuration not stated)	.	-1	.	0.4	.
COc1ccc(C2CC(c3ccccc3)=NN2C(=O)COC(=O)COc2ccccc2)cc1 (configuration not stated)	.	-9	4	7.4	-18%
Cc1cnc2cc([N+](=O)[O-])ccc2n1	-29	-5	1	0.1	5%
COc1ccc(C(=O)/C=C/c2cn(CC(O)CN3CCN(C)CC3)c3ccccc23)cc1OC (configuration not stated)	.	-5	.	-2.2	-2%
O=C(c1ccccc1)C1CN(c2ccccc2)CC1c1ccc(Cl)cc1 (configuration not stated)	-36	-8	3	-5.2	.
O=C(CCC(=O)N1CCN(c2ccc(F)cc2)CC1)c1ccc(Cl)cc1	.	37	.	-0.6	.
O=C1Nc2ccccc2S/C1=C/NCc1ccccc1Cl	.	-6	5	0.5	-2%
Cc1ccc2nc(SCc3nnc(-c4ccccc4)o3)[nH]c2c1	-19	-12	3	0.5	0%
O=C(O)CSc1nnc2n(-c3ccccc3)c(=O)c3ccccc3n12	.	2	.	-3.3	.
O=C(c1ccncc1)N1N=C2CCCCCC2C1(O)C(F)(F)F (configuration not stated)	.	-2	8	.	-7%
O=C(Oc1cccc2c(O)cccc12)c1ccccc1	-26	0	-3	6.7	11%
COc1ccc(Cl)cc1NC(=O)CN(C)CC(=O)Nc1ccccc1-c1ccccc1	.	-12	-11	5.5	6%
CC1CCCCC1NC(=O)C1CCN(S(=O)(=O)c2cccc3nsnc23)CC1 (configuration not stated)	-37	8	-4	-0.4	1%
CN(C)c1cccc(C(=O)NCc2ccccc2Cl)c1	.	2	3	1.2	7%
Cc1cnccc1CN(C)Cc1cn(C)nc1-c1cccc(Cl)c1	.	6	5	-6.1	-1%
CC(C)CNC(=O)CCc1c[nH]c2ccccc12	-62	-15	13	.	0%
COc1ccc(N2CCN(S(=O)(=O)CCNC(=O)CCCc3ccccc3)CC2)cc1	.	-1	.	-1.5	.
O=C(NC(=S)NC1CCCc2ccccc21)c1ccco1 (configuration not stated)	.	-5	7	-0.1	4%
O=C(/C=C/c1ccc(OCCCF)cc1)NCc1ccc(Cl)cc1	-33	1	-4	-0.8	.
CC(O)C1CCC2C3CC[C@H]4CC(O)CCC4(C)C3CC3(OCCO3)C12C (some centres not stated)	-27	6	3	-1.0	0%

# (further entries)
molecule	YopH PTP inh	Mtb betalactam	Arbovirus inh	RecA splice inh	Mtb growth
CCOC(=O)CC1COCCN1Cc1cn(C)nc1-c1ccccc1F (configuration not stated)	.	-4	4	0.8	-7%
NC(=O)C1CCN(c2nnnn2-c2ccccc2)CC1	7	15	3	-1.2	-2%
COc1c(C)cc(C(=O)C2CCCN(Cc3cccc(O)c3)C2)cc1C (configuration not stated)	.	-4	.	0.7	.
N/C(=N\NS(=O)(=O)c1ccccc1)c1ccccn1	.	2	.	-4.3	.
O=c1[nH]c2ccccc2[n+]([O-])c1-c1ccccc1	.	0	20	-3.1	-12%
N/C(=N\N=C/c1ccc(-c2ccc(O)c(C(=O)O)c2)o1)N[N+](=O)[O-]	-24	0	23	-2.3	-7%
COC(=O)/C(=C\C(=O)c1ccccc1)Nc1ccc(OC)cc1	.	92	.	-1.5	?
Cn1nc(CC(=O)Nc2cccnc2N2CCOCC2)c2ccccc2c1=O	.	4	.	-0.9	-6%
CCN(CC)S(=O)(=O)c1ccc(N2CCCCC2)c(NC(=O)C2=COCCO2)c1	.	1	.	2.2	.
N#Cc1ccccc1OCC(=O)N1CCN(C(=O)c2ccco2)CC1	.	4	.	-3.2	.
COc1ccc(CC(=O)Nc2ccccc2C(=O)N2CCCC2)cc1	.	3	.	1.4	.
Cc1nc2ccccc2n1C1CCN(C(=O)Nc2ccccc2)CC1	.	-3	15	-0.5	-2%
COc1cccc(OC)c1OC(=O)/C=C/c1ccc(C)o1	.	49	.	0.4	.
Nc1nc(-c2cc(Cl)cc(Cl)c2OC(F)F)cs1	.	-2	-14	.	6%
COc1cc2c(cc1OC)CN(C(=O)NS(=O)(=O)c1ccc(C)cc1)CC2	-42	3	5	-2.5	-8%
CC(=O)Nc1ccc(CN2CCN(Cc3ccc(F)c(F)c3)C(CCO)C2)cc1 (configuration not stated)	.	-2	0	6.0	0%
COc1cc(C(=O)NCCOC(=O)c2cccc(N(C)C)c2)cc(OC)c1OC	.	-2	.	1.9	.
CCCCn1c(-c2csc(C(C)C)c2)n[nH]c1=S	-3	6	6	1.0	3%
COc1ncnc2sc3c(c12)CCCC3	5	13	2	-7.2	0%
NC(=O)c1ccccc1OCC(=O)NS(=O)(=O)c1ccc(Cl)cc1	-25	-4	5	0.2	-9%
CCCNC(=O)Cn1cnc2sc(C(=O)NCCN(CC)CC)c(C)c2c1=O	-33	-4	1	0.9	-6%
CCc1ccc(OC(=O)/C=C/c2ccco2)cc1	.	1	.	-1.5	.
O=[N+]([O-])c1cc(S(=O)(=O)N2CCCC2)ccc1NCCc1ccccc1	-39	3	-2	1.2	3%
CCOc1ccc(NC(=O)CN(C)C(=O)c2cc(-c3ccc(OC)cc3)nc3ccccc23)cc1OCC	.	-7	.	1.7	.
CCCCn1c(N)c(N(CC(C)C)C(=O)C2CC(=O)N(c3ccc(C)cc3)C2)c(=O)[nH]c1=O (configuration not stated)	.	-6	.	-1.3	.

# (continued)
molecule	YopH PTP inh	Mtb betalactam	Arbovirus inh	RecA splice inh	Mtb growth
CCOC(=O)NC1(NCc2ccccc2)Oc2ccccc2O1	-16	-3	10	-8.0	-22%
COc1ccc(N(CC(=O)N/N=C/c2ccccc2F)S(=O)(=O)c2ccccc2)cc1	.	-1	.	-1.4	.
COC(=O)c1ccc(S(N)(=O)=O)o1	-5	3	6	-1.6	12%
O=C(O)C1CCCCC1C(=O)Nc1ccc(Cl)cc1Cl (configuration not stated)	-41	-2	8	.	-4%
Nc1c(Cl)cc(Cl)cc1C(=O)OCC(=O)N1CCCC1	-3	31	-3	-4.5	-11%
CN1CCOc2ccc(S(=O)(=O)NCCc3ccc(Cl)cc3)cc21	.	?	.	6.4	.
COc1cc(/C=N/NC(=O)c2ccc(Cl)c(S(N)(=O)=O)c2)ccc1OCC(N)=O	.	-5	.	0.2	-2%
CCOc1ccc(NC(=O)N2CCC(c3nc4ccccc4[nH]3)CC2)cc1	.	-8	-1	1.5	96%
CCN(CC(=O)NCc1ccc(Cl)cc1)C(=O)c1ccc(S(=O)(=O)NCc2ccco2)cc1	.	-6	.	2.1	.
Cc1ccc(S(=O)(=O)N2CCOCC2)cc1C(=O)OCC(=O)NC1CCS(=O)(=O)C1 (configuration not stated)	-16	-9	-6	-1.1	-12%
N#CC(C(=O)c1ccco1)c1ccccn1 (configuration not stated)	24	5	0	.	-11%

# Arranged by heavy-atom count (high to low): some entries from above
molecule	YopH PTP inh	Mtb betalactam	Arbovirus inh	RecA splice inh	Mtb growth
CCOc1ccc(NC(=O)CN(C)C(=O)c2cc(-c3ccc(OC)cc3)nc3ccccc23)cc1OCC	.	-7	.	1.7	.
CCCCn1c(N)c(N(CC(C)C)C(=O)C2CC(=O)N(c3ccc(C)cc3)C2)c(=O)[nH]c1=O (configuration not stated)	.	-6	.	-1.3	.
COc1ccc(N(CC(=O)N/N=C/c2ccccc2F)S(=O)(=O)c2ccccc2)cc1	.	-1	.	-1.4	.
Cc1ccc(S(=O)(=O)N2CCOCC2)cc1C(=O)OCC(=O)NC1CCS(=O)(=O)C1 (configuration not stated)	-16	-9	-6	-1.1	-12%
COc1cc(/C=N/NC(=O)c2ccc(Cl)c(S(N)(=O)=O)c2)ccc1OCC(N)=O	.	-5	.	0.2	-2%
CCCNC(=O)Cn1cnc2sc(C(=O)NCCN(CC)CC)c(C)c2c1=O	-33	-4	1	0.9	-6%
CCOc1ccc(NC(=O)N2CCC(c3nc4ccccc4[nH]3)CC2)cc1	.	-8	-1	1.5	96%
O=[N+]([O-])c1cc(S(=O)(=O)N2CCCC2)ccc1NCCc1ccccc1	-39	3	-2	1.2	3%
NC(=O)c1ccccc1OCC(=O)NS(=O)(=O)c1ccc(Cl)cc1	-25	-4	5	0.2	-9%
CCOC(=O)NC1(NCc2ccccc2)Oc2ccccc2O1	-16	-3	10	-8.0	-22%
Nc1c(Cl)cc(Cl)cc1C(=O)OCC(=O)N1CCCC1	-3	31	-3	-4.5	-11%
CCc1ccc(OC(=O)/C=C/c2ccco2)cc1	.	1	.	-1.5	.
N#CC(C(=O)c1ccco1)c1ccccn1 (configuration not stated)	24	5	0	.	-11%
COc1ncnc2sc3c(c12)CCCC3	5	13	2	-7.2	0%
COC(=O)c1ccc(S(N)(=O)=O)o1	-5	3	6	-1.6	12%
